ABCG2 block = inhibitors of human ABCG2 transporter, ABCB1 counter-screen; Q9UNQ0; IgMXP3 cells, JC-1 efflux, flow cytometry; inhibition, % at 6.6 µM; 0.1% of 190,000 active;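 active means inhibition above 80%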;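 further: 0% = DMSO and 100% = nicardipine control wells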
Target sequence (Q9UNQ0 whole entry, looked up): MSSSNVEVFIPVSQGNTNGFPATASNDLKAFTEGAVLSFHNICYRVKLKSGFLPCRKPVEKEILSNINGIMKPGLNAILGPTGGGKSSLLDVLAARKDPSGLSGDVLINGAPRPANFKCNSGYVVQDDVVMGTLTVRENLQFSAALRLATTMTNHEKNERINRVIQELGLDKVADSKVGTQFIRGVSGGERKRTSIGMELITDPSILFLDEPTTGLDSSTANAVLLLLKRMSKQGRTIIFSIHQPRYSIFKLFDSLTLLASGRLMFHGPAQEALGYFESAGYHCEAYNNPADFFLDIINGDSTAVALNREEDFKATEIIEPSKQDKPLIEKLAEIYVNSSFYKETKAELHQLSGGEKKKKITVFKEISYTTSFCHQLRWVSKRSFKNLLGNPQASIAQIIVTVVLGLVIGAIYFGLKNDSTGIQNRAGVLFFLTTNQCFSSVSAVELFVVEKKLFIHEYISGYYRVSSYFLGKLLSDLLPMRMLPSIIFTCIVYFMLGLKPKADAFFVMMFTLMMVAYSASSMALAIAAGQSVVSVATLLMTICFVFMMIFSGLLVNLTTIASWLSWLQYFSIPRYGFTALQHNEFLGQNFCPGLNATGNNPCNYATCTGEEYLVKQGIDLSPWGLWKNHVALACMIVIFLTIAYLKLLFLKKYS
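Test system: ABCG2 IgMXP3 and barcoded ABCB1 CCRF-Adr cell mix; Schedule: cells with compound and JC-1, 10 min at 25 °C, rotating, no wash; Technique: flow cytometry of retained JC-1 fluorescence; Measure: % inhibition of efflux relative to nicardipine and DMSO; Controls: nicardipine high and DMSO low controls.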
ABCB1 inh = inhibitors of human ABCB1 transporter, ABCG2 counter-screen; CCRF-Adr cells, JC-1 efflux, flow cytometry; inhibition, % at 6.6 µM; 0.067% of 190,000 active; in the data active means inhibition above about 40%;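 further: 0% = vehicle and 100% = reference inhibitor; higher value means more JC-1 retained so stronger ABCB1 efflux block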
Rab2 wt GTP = changes GTP binding to wildtype dog Rab2A, up or down; P61105; GST-Rab2 wt beads, Bodipy-GTP binding, flow cytometry; GTP binding activity, % at 10 µM; 0.19% of 190,000 active; AID 760;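 active means GTP binding activity at least 20 points away from 100%, either lowered or raised; inconclusive means signal likely due to the compound's own green fluorescence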;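 further: 0% = beads with excess unlabeled GTP and 100% = no-compound control corrected for plate trend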
Pf gametocyte = inhibitors of late stage P. falciparum gametocyte viability; inhibition, % at 10.9 µM; P. falciparum stage V gametocytes, ATP luminescence, 24 h; 0.065% of 150,000 active;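 active means inhibition above the mean plus 3 SD of compounds within the control limits, set per campaign, cut at about 38% in these data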;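 further: 0% = DMSO wells and 100% = medium only without gametocytes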
Rac1 wt GTP bind = modulators of human Rac1 wildtype GTP binding. P63000. GST-Rac1 beads, fluorescent GTP binding, flow cytometry; actives lie on both sides; 0 = cold GTP competed, 100 = untreated. GTP binding activity (% of control), % at 10 µM. 0.27% of 190,000 active;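 active means GTP binding activity at least 20 points away from the 100% control level, either lower or higher; inconclusive means compound flagged as likely green fluorescent, judged across all proteins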
Avidin fluor = compound fluoresces at 488/530 nm on avidin beads; compound fluorescence 488/530 nm, flow cytometry; active compounds read high; fluorescence (KMESF) at 10 µM; 0.38% of 220,000 active; AID 1775; in the data active means fluorescence above about 47; further: inactives centre near 10
HRas wt GTP bind = changes GTP binding to wildtype human HRas; GTP binding activity, % at 10 µM; GST-Ras wt beads, Bodipy-FL-GTP binding, flow cytometry; actives lie on both sides; 0.14% of 190,000 active; P01112;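 active means GTP binding activity at least 20% away from the 100% baseline, either lowered as inhibitor or raised as activator; inconclusive means flagged as likely green fluorescent, judged across all proteins in the well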;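 further: 0% = unlabeled GTP competition control and 100% = no-compound control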
Target sequence (P01112 whole entry, looked up): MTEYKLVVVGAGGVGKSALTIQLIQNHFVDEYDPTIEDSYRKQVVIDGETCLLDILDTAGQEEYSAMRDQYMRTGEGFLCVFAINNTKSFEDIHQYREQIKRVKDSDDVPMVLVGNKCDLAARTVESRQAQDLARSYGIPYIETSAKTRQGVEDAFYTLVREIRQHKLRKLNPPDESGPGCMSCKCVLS
Rab7 wt modul = alters GTP binding to wildtype dog Rab7. GST-Rab7 beads, fluorescent GTP binding, flow cytometry; actives lie on both sides; untreated = 100%, excess cold GTP = 0%. AID 758. GTP binding activity (percent of control), % at 10 µM. 0.055% of 190,000 active;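 active means fluorescent GTP binding to Rab7 beads changed by at least 20 points from the 100% baseline, either direction, mostly lower; inconclusive means compound itself probably fluorescent, or too few beads counted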;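 further: median green fluorescence of bound Bodipy-FL-GTP per Rab7 bead population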
Cdc42 wt GTP = human Cdc42 wildtype GTP binding change, either direction | P60953 | GST-Cdc42 beads, Bodipy-GTP binding, flow cytometry; actives lie on both sides | percent activity (GTP binding), % at 10 µM | 0.2% of 190,000 active;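 active means percent activity GTP binding at least 20 points away from the 100% baseline, either down as inhibitor or up as activator; inconclusive means compound flagged as likely green fluorescent from well-wide comparison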;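 further: median bead fluorescence of bound Bodipy-FL-GTP at 100 nM; 0% = excess unlabeled GTP control and 100% = no compound control; below 100% means less GTP binding so inhibitor and above means activator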
Target sequence (P60953 whole entry, looked up): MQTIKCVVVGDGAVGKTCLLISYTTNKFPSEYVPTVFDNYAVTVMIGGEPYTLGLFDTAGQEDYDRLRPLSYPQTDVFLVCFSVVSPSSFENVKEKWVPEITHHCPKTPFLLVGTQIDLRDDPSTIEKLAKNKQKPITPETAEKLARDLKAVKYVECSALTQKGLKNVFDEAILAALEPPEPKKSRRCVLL
Rac1 mut GTP = human Rac1 activated mutant GTP binding change. P63000. GST-Rac1 activated beads, fluorescent GTP binding, flow cytometry; actives lie on both sides; 100% means binding = to untreated wells. percent activity (GTP binding), % at 10 µM. 0.11% of 190,000 active;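 active means GTP binding at least 20 percentage points away from the 100% baseline, in either direction, so actives lie on both sides; inconclusive means Compound likely fluorescent itself, or too few beads counted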
* marks the source's active call; other numbers are inactive results; ? = inconclusive; nt = not tested or not shown. An excerpt; rates above refer to the full screens.

SMILES	ABCG2 block	ABCB1 inh	Rab2 wt GTP	Pf gametocyte	Rac1 wt GTP bind	Avidin fluor	HRas wt GTP bind	Rab7 wt modul	Cdc42 wt GTP	Rac1 mut GTP
CCOc1cccc(C(=O)NC(=S)Nc2cccc(C)c2)c1	3.3	0.0	98.0	7.5	102.0	5	101.0	99.0	100.0	99.0
COc1cccc(OCC(=O)Nc2ccccc2C(N)=O)c1	14.7	1.2	96.0	nt	96.0	14	98.0	98.0	99.0	94.0
CNC(=S)NNC(=O)c1oc2nc(-c3ccccc3)cc(-c3ccco3)c2c1N	nt	nt	nt	-16.1	nt	7	nt	nt	nt	nt
Cc1sc2nc(CSc3ccccc3)nc(N3CCC(C(N)=O)CC3)c2c1C	7.2	0.8	93.0	-11.6	90.0	25	89.0	93.0	93.0	92.0
COc1ccc(-c2ccc3c(N)c(C(=O)c4ccc(OC)c(OC)c4)sc3n2)cc1	32.5	0.2	104.0	1.9	103.0	13	103.0	105.0	102.0	100.0
COc1cccc2sc(Nc3nc4ccc(NC(C)=O)cc4s3)nc12	-14.1	-1.9	98.0	-16.0	97.0	8	100.0	100.0	98.0	97.0
COc1ccc(C(C#N)Nc2ccccc2C)cc1 (stereo not given)	0.1	0.1	95.0	18.7	98.0	18	100.0	94.0	99.0	94.0
COc1cc(Nc2ccccn2)cc(C(=O)Nc2cccc(C(F)(F)F)c2)c1	nt	nt	nt	nt	nt	8	nt	nt	nt	nt
COc1ccc(OC)c2sc(NC(=O)C3CC3)nc12	1.0	0.0	97.0	nt	98.0	5	96.0	97.0	100.0	96.0
Cc1ccc(-c2cnc(NC(=O)CCC(=O)N(C)Cc3ccccc3)n2C)cc1	0.9	0.3	101.0	nt	102.0	37	102.0	105.0	101.0	97.0
Oc1ccc2ccccc2c1C=NC12CN3CCN(CN(C3)C1)C2	0.1	-0.1	102.0	-20.6	105.0	5	101.0	97.0	106.0	100.0
O=C(Nc1ccccc1)Nc1nnc(-c2cccs2)s1	-0.3	-0.1	99.0	-8.9	104.0	13	99.0	104.0	102.0	100.0
CCn1c(COc2ccc(C)cc2)nnc1SCC(=O)Nc1ccc(S(N)(=O)=O)cc1	8.3	0.3	100.0	-7.0	103.0	27	100.0	100.0	100.0	100.0
O=C(CSc1nnc2c3c4c(sc3ncn12)CCCC4)NCc1ccco1	11.3	0.6	97.0	nt	99.0	12	99.0	100.0	98.0	95.0
O=C(OC1CCOC1=O)c1cccc(S(=O)(=O)Nc2cccc(Cl)c2)c1 (stereo not given)	-8.9	-1.0	98.0	5.7	103.0	14	101.0	102.0	102.0	97.0
Cc1cc2ccccc2nc1SCC(=O)N1CCCC1	1.2	0.4	100.0	10.2	101.0	6	100.0	97.0	101.0	99.0
COc1ccc(OCc2nc(N)nc(Nc3ccc(C)cc3)n2)cc1	4.0	0.6	?	0.2	?	14	?	?	?	?
COC(=O)c1ccc2c(=O)[nH]c(CN3c4ccccc4CC3C)nc2c1 (stereo not given)	-3.0	-2.9	102.0	-0.2	105.0	10	103.0	98.0	105.0	100.0
CCCCOc1ccc(Cc2c(COCC)[nH]c(=S)[nH]c2=O)cc1	-1.3	-0.4	96.0	19.0	96.0	12	93.0	95.0	96.0	95.0
Cc1ccc(NC2c3ncccc3C(=O)N2Cc2cccs2)cc1 (stereo not given)	10.9	2.0	96.0	4.7	101.0	15	99.0	103.0	99.0	97.0
COc1cc2c(cc1OC)-c1cc(N3CCCCCC3)nc(=O)n1CC2	-3.1	-5.6	96.0	nt	97.0	14	96.0	98.0	98.0	98.0
N#CC(c1ccncc1)(c1ncc(C(F)(F)F)cc1Cl)N1CCOCC1 (stereo not given)	16.5	0.8	98.0	8.2	101.0	7	98.0	96.0	98.0	98.0
O=C(COC(=O)C12CC3CC(CC(C3)C1)C2)NCCc1ccccc1	8.6	0.8	96.0	nt	97.0	6	97.0	97.0	99.0	95.0
Cn1c(N)c(C(=O)Nc2c(Cl)cccc2Cl)sc1=S	nt	nt	nt	-2.7	nt	4	nt	nt	nt	nt
C/C(=N\Nc1ccc(Cl)cc1)c1c(O)cc(C)oc1=O	4.1	0.9	94.0	-7.8	95.0	29	94.0	95.0	94.0	96.0

As entered above:
CNC(=S)NNC(=O)c1oc2nc(-c3ccccc3)cc(-c3ccco3)c2c1N | Pf gametocyte = -16.1
CCn1c(COc2ccc(C)cc2)nnc1SCC(=O)Nc1ccc(S(N)(=O)=O)cc1 | Rab2 wt GTP = 100.0

The results go on.
SMILES	ABCG2 block	ABCB1 inh	Rab2 wt GTP	Pf gametocyte	Rac1 wt GTP bind	Avidin fluor	HRas wt GTP bind	Rab7 wt modul	Cdc42 wt GTP	Rac1 mut GTP
O=C(/C=C/NNC(=O)c1cccc(Br)c1)c1cccc(Br)c1	nt	nt	98.0	nt	104.0	5	102.0	99.0	102.0	99.0
O=C(N/N=C/c1cccc([N+](=O)[O-])c1)c1cc(-c2ccc3c(c2)OCO3)n[nH]1	nt	nt	nt	12.8	nt	7	nt	nt	nt	nt
COc1ccc(C(=O)NNC(=O)OC(C)(C)C)cc1	nt	nt	nt	-14.1	nt	10	nt	nt	nt	nt
CCN(CC)CC(=O)N1c2ccccc2Oc2c(c(=O)n(C)c(=O)n2C)C1c1cccc([N+](=O)[O-])c1 (stereo not given)	nt	nt	nt	-7.9	nt	5	nt	nt	nt	nt
CCN(CC)C(=O)CSC(Nc1cccc(F)c1)=C(C#N)C#N	nt	nt	nt	-12.3	nt	7	nt	nt	nt	nt
COC(=O)C1=NN(c2ccc(Cl)cc2)C2C(=O)N(c3ccccc3OC)C(=O)C12 (stereo not given)	10.7	2.8	100.0	14.9	99.0	15	100.0	101.0	97.0	99.0
CCc1ccc(Nc2nnc(SCC(=O)c3ccc4c(c3)NC(=O)CO4)s2)cc1	-0.2	-0.1	102.0	nt	100.0	5	99.0	103.0	99.0	96.0
CCc1cccc2c(C(=O)COC(=O)/C=C/c3ccccc3OC)c[nH]c12	-2.4	-0.6	99.0	-2.3	99.0	14	98.0	96.0	98.0	95.0
O=C(O)c1ccc2nc3c(nc2c1)-c1ccccc1C3=O	3.6	1.6	?	-18.5	?	10	?	?	?	?
Cc1cc(=O)oc(C)c1C(=O)N[C@@H]1CCCCNC1=O	1.3	0.4	100.0	nt	100.0	4	100.0	97.0	104.0	98.0
C/C=C/c1ccc(OCCN2CCc3ccccc3C2)c(OC)c1	18.7	1.0	99.0	-3.1	105.0	4	99.0	104.0	98.0	96.0
CC1=C(C(=O)OCC2CCCO2)C(c2cccc(C(F)(F)F)c2)C2=C(CC(c3ccco3)CC2=O)N1 (stereo not given)	5.9	1.7	93.0	-13.9	97.0	6	96.0	93.0	96.0	93.0
COc1ccc2nc(C)cc(SCC(=O)N/N=C/c3cccc4ccccc34)c2c1	-0.1	-0.1	98.0	2.0	98.0	23	98.0	97.0	98.0	97.0
O=S(=O)(c1ccc(F)cc1)N1CCn2c(nc3ccccc32)C1	3.4	0.5	100.0	nt	101.0	7	100.0	103.0	98.0	98.0
CC(O)CNc1nc2c(c(=O)n(Cc3ccc(Cl)c(Cl)c3)c(=O)n2C)n1C (stereo not given)	nt	nt	nt	6.3	nt	7	nt	nt	nt	nt
COC(=O)c1cc2ccsc2n1Cc1cccc(F)c1	18.9	0.6	96.0	-19.5	104.0	13	101.0	100.0	102.0	100.0
COc1ccc(/C=C/C2=Nc3ccccc3NC(C)(C)C2)cc1OC	nt	nt	nt	-19.5	nt	6	nt	nt	nt	nt
CC1(C)N([O-])c2cc([N+](=O)[O-])ccc2[N+]1=O	nt	nt	nt	-8.2	nt	0	nt	nt	nt	nt
Cc1ccc(NC2SC(=O)N(CC(=O)O)C2=O)cc1 (stereo not given)	2.9	0.6	99.0	nt	101.0	8	102.0	100.0	102.0	98.0
CC(C)(C)c1ccc(OCC(=O)NNC(=O)c2cccnc2)cc1	-0.6	-0.6	99.0	8.8	104.0	14	97.0	98.0	101.0	96.0
COc1cc(/C=N/NC(N)=S)ccc1OCC(=O)Nc1ccc(C)cc1	-0.1	-0.5	98.0	26.3	100.0	2	99.0	98.0	99.0	98.0
CCc1cccc(NC(=O)C(NC(=O)C2CCCCC2)C(C)C)c1 (stereo not given)	0.6	0.6	102.0	-6.4	105.0	12	100.0	109.0	103.0	95.0
Brc1ccccc1-c1nnc(SCc2nc3ccccc3s2)o1	-3.0	-0.3	?	2.8	?	6	?	?	?	?
CN1CCN(C(=O)/C=C/c2ccc(Cl)cc2)CC1	1.9	0.8	100.0	nt	102.0	7	100.0	100.0	100.0	100.0
COc1ccc(-n2ncc3c(NC(C)C)ncnc32)cc1	2.7	0.2	95.0	nt	95.0	37	97.0	96.0	98.0	97.0
SMILES	ABCG2 block	ABCB1 inh	Rab2 wt GTP	Pf gametocyte	Rac1 wt GTP bind	Avidin fluor	HRas wt GTP bind	Rab7 wt modul	Cdc42 wt GTP	Rac1 mut GTP
CCc1cc(C(c2ccccc2OC)N2CCOCC2)c(NC(=O)c2ccccc2)s1 (stereo not given)	4.8	0.8	?	nt	?	14	?	?	?	?
C=CCSc1nnc2c(n1)[nH]c1c(C)cccc12	0.7	0.1	102.0	nt	105.0	10	104.0	102.0	103.0	101.0
CC(C)NC(=O)CNc1ccc(C(F)(F)F)cc1[N+](=O)[O-]	15.7	2.4	98.0	-8.2	101.0	11	101.0	103.0	99.0	98.0
CCOC(=O)c1cc(C(=O)OCC)c(=O)[nH]c1N1CCCCC1	1.7	-0.3	95.0	-5.3	96.0	12	96.0	100.0	91.0	93.0
Cc1c(C=O)c2ccccn2c1C(=O)c1ccc(Cl)c([N+](=O)[O-])c1	0.4	0.2	95.0	10.0	91.0	25	94.0	100.0	94.0	93.0
CCc1ccc(NC(=O)c2cnn(-c3ccccc3)c2C)cc1	3.2	0.3	98.0	nt	103.0	4	99.0	100.0	98.0	102.0
COc1cc(/C=N/NC(=S)NC(C)C)ccc1OCC(=O)Nc1c(C)cc(C)cc1C	8.8	8.2	100.0	-5.7	107.0	12	100.0	100.0	100.0	101.0
O=S(=O)(Cc1cccc(C(F)(F)F)c1)c1ncn[nH]1	20.3	1.3	97.0	0.9	99.0	8	97.0	99.0	96.0	95.0
O=C(Nc1ccc(NC(=O)c2sc3ccccc3c2Cl)cc1Cl)c1ccco1	-0.6	-0.2	100.0	nt	102.0	29	101.0	97.0	101.0	102.0
COc1ccc(-c2ccc3c(N)c(C(=O)c4cccc(OC)c4)sc3n2)cc1	-0.2	0.0	98.0	3.7	101.0	9	96.0	97.0	95.0	99.0
Cc1ccc(Cn2c(=O)c3c(nc4n3CCN4Cc3ccco3)n(C)c2=O)cc1	25.6	2.3	94.0	nt	92.0	33	91.0	92.0	96.0	95.0
C=C(C)CN=C1SC(C(=O)Nc2sc3c(c2C(=O)OC)CCC3)C(N)=C1C(N)=O (stereo not given)	1.3	0.8	96.0	5.6	106.0	15	102.0	97.0	102.0	99.0
CCN(CC)C(=O)CSC(Nc1ccc(F)cc1)=C(C#N)C#N	nt	nt	nt	9.3	nt	9	nt	nt	nt	nt

Assay outcomes (PubChem BioAssay)
